Compound activity as filed in PubChem BioAssay.
Cruzain Triton – blocks cruzain activity in presence of Triton detergent; P25779; purified cruzain, Z-FR-AMC fluorescence, 0.01% Triton; Potency, µM, without a hit: max response, negative = inhibition, usual class: inhibitors; 200,000 tested, 0.43% active; AID 1478; active means well fitted curve in the direction sought with a large enough effect; inconclusive means small, poorly fitted or top-dose-only effect, or another doubt; inactive means no such curve, though single readings can be large; an effect the other way counts as inactive or inconclusive;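 further: plate controls were neutral wells for no effect and buffer without enzyme for full effect; nearly all actives have a fitted effect of over 40% in size; top concentration of the series not given in the record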
Target sequence (P25779 123-467 limits assumed): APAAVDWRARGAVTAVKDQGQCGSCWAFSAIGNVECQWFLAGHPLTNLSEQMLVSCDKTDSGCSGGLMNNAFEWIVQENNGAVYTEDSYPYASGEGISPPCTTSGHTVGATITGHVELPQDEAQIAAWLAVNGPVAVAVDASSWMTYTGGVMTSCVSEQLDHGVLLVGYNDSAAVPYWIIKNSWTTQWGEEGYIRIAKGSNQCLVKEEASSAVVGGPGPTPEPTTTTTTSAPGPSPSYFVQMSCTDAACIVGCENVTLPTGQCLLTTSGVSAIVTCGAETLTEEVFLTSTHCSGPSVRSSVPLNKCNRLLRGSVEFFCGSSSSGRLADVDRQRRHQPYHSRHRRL
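15 min RT preincubation of 1.5 nM cruzain with compound, then 2 uM Z-FR-AMC added; kinetic AMC fluorescence, 60 s delta. Triton X-100 0.01%, pH 5.5.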
MARV entry inh – Marburg virus entry inhibition; Marburg virus pseudotyped entry inhibition, cell reporter; control for the full effect not named in the record; about a third of the inactives were read at about 46 µM; Potency, µM (highest dose often 37.8 µM), without a hit: top-dose activity change, negative = inhibition, actives largely listed as inhibitors; 300,000 tested, 1.8% active; active = well fitted inhibition curve with a large enough effect; inconclusive = small, poorly fitted or top-dose-only effect, or effect the other way; inactive = flat fitted curve, though single readings scatter; tested in HEK293 cells; about a fifth of its hits are not listed in these tables; further: on the % scale 0 is the no-effect control and ±100 the full control effect; luciferase read-out
NS1 function inh – inhibitors of influenza NS1 protein function; Potency, µM (top dose mostly 46.1 µM), without a hit: at the highest dose activity, positive = more growth; S. cerevisiae slowed by influenza A NS1, growth recovery by OD600; 270,000 tested, 0.4% active; further: actives are rising curves; nearly all actives have a fitted effect of over 50% in size
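Recovery from NS1-induced slow growth read by OD600 in budding yeast switched to galactose assay medium (pH 6.0, -URA) at 1:100 dilution. Compound 23 nl per well; the matching strain lacking NS1 serves as control.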
2A StopGo – lowers the luciferase signal of an FMDV 2A StopGo reporter | human cells with a luciferase reporter of 2A StopGo recoding; control for the full effect not named in the record | Potency, µM (series often up to 57.9 µM), for inactives: top-dose signal change, negative = less light | 410,000 tested, 1.2% active; active = well fitted falling curve with a large enough effect; inconclusive = small, poorly fitted or top-dose-only effect; inactive = no such curve, though single readings can be large or run the other way; tested in HEK293T cells; further: on the % scale 0 is the no-effect control and ±100 the full control effect; nearly all actives have a fitted effect of over 45% in size; luciferase light after 4 h
RE007 growth inh – less growth of the S. pombe RE007 Vpr strain; S. pombe RE007 Vpr strain, BacTiter-Glo ATP luminescence, 24 h; control for the full effect not named in the record; Potency, µM (series often up to 92.2 µM), for the others: at the top dose activity change, negative = less growth; 360,000 tested, 0.21% active; active = well fitted falling curve with a large enough effect; inconclusive = small, poorly fitted or top-dose-only effect; inactive = no such curve, though single readings can be large or run the other way;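 further: on the % scale 0 is the no-effect control and ±100 the full control effect; nearly all actives have a fitted effect of over 50% in size; the assay follows cell death caused by Vpr and the record does not say whether a fall means rescue or toxicity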
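Fission yeast strain RE007, carrying one chromosomally integrated HIV-1 vpr copy, was seeded at OD 0.01 in PMG+AL medium with 23 nL pinned compound. After 24 h at 30 °C and 99% humidity, viability was read by BacTiter-Glo luminescence.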
SARS PLP yeast – inhibitors of SARS-CoV papain-like protease in yeast; S. cerevisiae expressing SARS-CoV PLpro, growth rescue; control for the full effect not named in the record; Potency, µM (doses to about 32.9 µM), for inactives: top-dose activity, positive = growth rescue; 330,000 tested, 0.19% active; AID 485353; further: 0% is about no effect; nearly all actives have a fitted effect of over 55% in size; growth read by luminescence after 48 h
Cruzain inh noDet – inhibitors of Trypanosoma cruzi cruzain without detergent; Potency, µM, without a hit: max response, negative = inhibition, most hits filed as inhibitors; P25779; AID 1476; purified cruzain, Z-FR-AMC fluorescence, no detergent; 200,000 tested, 2.3% active; active means well fitted curve in the direction sought with a large enough effect; inconclusive means small, poorly fitted or top-dose-only effect, or another doubt; inactive means no such curve, though single readings can be large; an effect the other way counts as inactive or inconclusive;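 further: plate controls were enzyme without inhibitor for no effect and buffer without enzyme for full effect; nearly all actives have a fitted effect of over 40% in size; top concentration of the series not given in the record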
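Detergent-free condition (0.00005% Triton X-100) in acetate buffer pH 5.5 with DTT. 1.5 nM enzyme and compound were pre-mixed 15 min, then 2 uM Z-FR-AMC substrate added; reaction progress from fluorescence change between first and third reads (60 s).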
Lassa entry inh – inhibitors of Lassa virus binding or cell entry; 300,000 tested, 1.2% active; AID 540256; Potency, µM (series often up to 37.9 µM), for inactives: at the top dose activity change, negative = inhibition, actives largely listed as inhibitors; Lassa virus pseudotype entry inhibition, cell reporter; control for the full effect not named in the record; active means well fitted inhibition curve with a large enough effect; inconclusive means small, poorly fitted or top-dose-only effect, or effect the other way; inactive means flat fitted curve, though single readings scatter; tested in HEK293 cells; further: on the % scale 0 is the no-effect control and ±100 the full control effect; nearly all actives have a fitted effect of over 50% in size; luciferase read-out
* marks the source's active call; other numbers are inactive results; ? = inconclusive; . = no result given; & = joins results of further samples; [ ] = remark or other dose. Unless noted, the call rests on the fitted dose curve; in most records, active means well fitted rising curve with a large enough effect; inconclusive means small, poorly fitted or top-dose-only effect; inactive means no such curve, though single readings can be large or run the other way. Potency means the concentration at half of the fitted maximal effect.

SMILES	Cruzain Triton	MARV entry inh	NS1 function inh	2A StopGo	RE007 growth inh	SARS PLP yeast	Cruzain inh noDet	Lassa entry inh
CS(=O)(=O)N(CC(=O)Nc1ccccc1C(=O)N1CCOCC1)c1ccc(Cl)cc1	.	.	-1%	-19%	-9%	0%	.	.
Cc1cc(NC(=O)c2cc(C(C)C)on2)no1	6.7%	16%	-48%	25%	-29%	5%	5%	1%
Cc1ccccc1-c1nn[nH]n1	-2.9%	-22%	0%	1%	-6%	-6%	-10%	-1%
O=C(C[n+]1cc(-c2ccccc2)n2c1CCC2)Nc1nc(-c2ccc(F)cc2)cs1	-9.6%	?	5%	0%	33%	12%	?	14%
CCOc1ccc(C(Nc2ccc(C)cc2)P2(=O)OCCC(C)O2)cc1 (configuration not stated)	11%	-13%	3%	-21%	15%	3%	?	-11%
O=C1NN(c2ccccc2)C(=O)/C1=C\c1cccc(OC(=O)c2cccs2)c1	-16%	-25%[46.1 µM]	0%	?	-3%	5%	?	-4%
O=S(=O)(NC1C2CC3CC(C2)CC1C3)c1ccc(F)cc1 (configuration not stated)	.	0%	.	23%	10%	-7%	.	-19%[46.1 µM]
CCOc1cc(/C=C2\SC(=S)N(C(C(=O)O)c3ccccc3)C2=O)ccc1O (configuration not stated)	.	.	18%	1%	4%	1%	.	.
COc1cccc(N=CNc2cccc(OC)c2)c1	.	0%	.	58%[activator]	3%	.	.	-1%
S=C(NCCc1ccccc1)NCC1CCCO1 (configuration not stated)	-1.4%	?	9%	52%[activator]	-22%	5%	-7%	?
CCOc1ccc(OCCC(=O)N2CCN(S(=O)(=O)c3ccc(OCC)cc3)CC2)cc1	.	-8%	-1%	-23%	7%	16%	.	?
CCCNC(=O)c1ccc(Cn2c(=O)c3cccn3c3cccnc32)cc1	0.0%	.	.	0%	.	.	16%	16%[46.1 µM]
Nn1c(SCc2ccc(Br)cc2)nnc1-c1ccncc1	.	.	-1%	-7%	-6%	0%	.	.
O=C(c1ccc(Cl)cc1)N1CCC(O)(CSc2ccc(Cl)cc2Cl)CC1	-8.1%	-13%[46.1 µM]	-22%	?	?	-23%	?	-23%
COc1cc(CCC(=O)OCC(=O)Nc2ccccc2OC(F)F)cc(OC)c1OC	.	12%[46.1 µM]	1%	5%	19%	-9%	.	12%
CC1(C)CC(=O)C(C=NCCN2CCN(CCCCS(=O)(=O)O)CC2)=C(O)C1	-0.8%	6%	2%	3%	0%	-4%	1%	-7%
CC[C@@H]1CC=C[C@H]2[C@H]1C(=O)N(Cc1ccccc1)[C@H]2c1ccc(OC)c(Cl)c1	.	.	-63%	-20%	0%	-14%	.	.
COC(=O)c1ccc(COc2ccc(/C=N/O)cc2)o1	.	.	9%	41%[activator]	2%	1%	.	.
COc1cc(O)c(C(CCN2CCCC(C)C2)c2cc(OC)c(OC)c(OC)c2)c(OC)c1 (configuration not stated)	.	.	-6%	-17%	-14%	0%	.	.
CCc1ccc(NS(=O)(=O)c2cc3c4c(c2)CCN4C(=O)CC3)cc1	.	16%	.	57%[activator]	-18%	2%	.	-7%
Cc1ccc(C23CC4CC(CC(CC(=O)NC(C)(C)CO)(C4)C2)C3)cc1	.	.	-4%	-15%	-3%	-5%	.	.
O=C(Cc1ccc2c(c1)OCCO2)c1c(O)cc(O)cc1O	-8.2%	11%	13%	.	-22%	3%	-9%	?
CC1CCCCN1C(=O)Cn1c(=O)n(C2CCCCC2)c(=O)c2ccccc21 (configuration not stated)	3.2%	14%	-20%	-15%	10%	2%	-1%	2%
O=C1COc2ccc(C(=O)COC(=O)CCc3ccc(S(=O)(=O)N4CCOCC4)cc3)cc2N1	-6.0%	11%&11%	-15%	-25%	4%	-2%	10%	-6%
CC(=O)c1cccc(NC(=O)NC2CCCc3ccccc32)c1 (configuration not stated)	.	.	3%	12%	2%	-2%	.	.
CCCOc1ccc(-c2nc(OCC)c3ccccc3n2)cc1	-1.5%	3%	0%	.	-5%	-1%	-3%	-7%
COCCn1c(-c2ccccc2)cnc1N	4.2%	8%	9%	5%	0%	27%	-5%	4%
CC(=O)OCC1OC(OCc2cn(C[C@H]3CC[C@H](Cn4cc(COC5OC(COC(C)=O)C(OC(C)=O)C(OC(C)=O)C5OC(C)=O)nn4)O3)nn2)C(OC(C)=O)C(OC(C)=O)C1OC(C)=O (some centres not stated)	.	.	-26%	5%	-7%	15%	.	.
N#Cc1c(Nc2ccc(Cl)cc2)s[nH]c1=O	.	1%[46.1 µM]	5%	29%	-2%	2%	.	1%
CCOn1c(=O)c(=O)n(O)c2ccccc21	.	1%[46.1 µM]	0%	-9%	-21%	0%	.	-14%
Cc1cccc(C)c1NC(=O)Cn1c(=O)n(Cc2ccccc2)c(=O)c2c(C)c(C(=O)N(C)C)sc21	1.6%	.	.	-2%	.	.	-3%	-1%[46.1 µM]
COc1ccc2c(Sc3ccc(C)cc3)c(C(=O)NCCc3ccccc3)[nH]c2c1	-3.0%	-16%[46.1 µM]	.	16%	.	.	16µM*	0%[46.1 µM]
CC(=O)Nc1ccccc1NC(=O)C/C(C)=N/NC(=O)Cc1cccc2ccccc12	.	-1%[46.1 µM]	18%	-8%	-10%	-6%	.	-1%[46.1 µM]
CCOc1ccc(CNC(=O)c2ccc(Sc3ccc(C)cc3)c(NC(C)=O)c2)cc1	-7.4%	1%	11%	-13%	17%	-32%	16%	?
O=C(O)c1cc2nccc(-c3ccco3)n2n1	.	.	-2%	-21%	-9%	-3%	.	.
CN1CCN(Cc2ccc(Br)s2)CC1	4.5%	0%	9%	.	15%	-3%	2%	-1%
O=C(Nc1cccc(Cl)c1)C1C2CCC3C(CCC21)C3(Cl)Cl (configuration not stated)	3.4%	?	12%	40µM*	-10%	-17%	?	?
Cc1ncn(C23CC4CC(CC(C4)C2)C3)n1	1.1%	-21%	13%	-12%	-2%	29%	1%	5%
Cc1cc(C)c(C(=O)N2CCC(N3CCC(C(=O)NC(C)C)CC3)CC2)o1	.	?	-2%	-11%	-6%	1%	.	-11%
CC1=[N+]([O-])C(C)(C)N(O)C1(C)C	.	?	0%	-7%	-10%	1%	.	16%
Cc1cccc(C)c1NC(=O)c1nc(S(C)(=O)=O)ncc1N(Cc1ccc(C(C)(C)C)cc1)Cc1ccco1	-2.1%	?	.	-7%	.	.	-21%	-23%[46.1 µM]
Cc1ccc(NS(=O)(=O)c2ccc3[nH]c4c(c3c2)CCCCCC4)cc1Cl	-0.4%	.	.	0%	.	.	?	-14%[46.1 µM]
O=C(c1ccccc1)c1ccccc1	0.6%&3.1%	.	.	-22%	-8%	-2%	-2%&5%	.
O=C(CSc1nnnn1-c1ccccc1)Nc1ncc2c(n1)CC(c1ccco1)CC2=O (configuration not stated)	-4.6%	1%&1%&1%	?	-7%	-4%	5%	?	-7%
Cc1nn(-c2ccccc2)c(Cl)c1/C=C(\C#N)C(=O)NC(C)C	-2.9%	-5%	-42%	25µM*	48%	-61%	-1%	-25%
COc1ccc(-n2c(COc3cccc4ccccc34)nnc2SCC(=O)NCc2ccco2)cc1	-8.8%	?	?	?	5%	1%	17%	?
Cc1nc(NCc2ccc3c(c2)OCO3)c2nnn(Cc3ccccc3)c2n1	-4.4%	?	0%	-4%	17%	3%	16%	-16%
O=C(N/N=C/c1ccccc1OCc1ccccc1)c1cccnc1	-7.6%	-26%	-10%	16%	-14%	-23%	-1%	-19%
CN1C(=O)C(O)(CC(=O)/C=C/c2ccco2)c2ccccc21 (configuration not stated)	.	18%[46.1 µM]	3%	-21%	16%	0%	.	?
CCN(CC(=O)Nc1ccccc1C(F)(F)F)C(=O)c1ccc2c(c1)NC(=O)CS2	.	?	.	-17%	0%	1%	.	6%
COc1ccccc1CNC(=O)c1ccc(CS(=O)c2ccccc2Cl)o1 (configuration not stated)	-8.9%	.	.	?	.	.	-12%	-28%[46.1 µM]
Cc1ccccc1S(=O)(=O)Cc1ccc(C(=O)O)o1	2.6%	5%	6%	.	8%	15%	-3%	5%
CCOc1ccc(-c2nnc(SCC(=O)Nc3cccc(OC)c3)nc2-c2ccc(OCC)cc2)cc1	0.6%	.	.	-2%	.	.	-10%	?
C=CCN1C(=O)C(Cc2ccc(OC)cc2)S/C1=N\N=C\c1cccs1 (configuration not stated)	-3.9%	-15%	-4%	0%	-2%	1%	-4%	-10%
O=C(CN1CCN(Cc2ccccc2)CC1)NNC(=O)c1ccc(Cl)cc1	.	-6%[46.1 µM]	.	16%	-11%	-1%	.	-23%
O=C(NNC(=O)c1ccccc1F)c1ccc(-n2cncn2)c([N+](=O)[O-])c1	.	21%	.	-17%	-20%	9%	.	2%[46.1 µM]
Cc1cccc(CCN=C(N)NS(=O)(=O)c2ccccc2)c1	.	.	0%	-10%	-9%	-1%	.	.
O=C(Cn1c2ncccc2c(=O)n1-c1ccccc1)NCc1ccccc1Cl	-1.2%	.	.	-5%	.	.	3%	22%[46.1 µM]
c1ccc(Oc2nc(NCc3ccco3)nc(NCc3ccco3)n2)cc1	-5.9%	-19%	5%	10%	1%	10%	-13%	1%
CS(=O)(=O)n1nc(-c2ccc(Cl)cc2)nc1N	.	-11%[46.1 µM]	1%	19%	6%	0%	.	16%
Next part.
SMILES	Cruzain Triton	MARV entry inh	NS1 function inh	2A StopGo	RE007 growth inh	SARS PLP yeast	Cruzain inh noDet	Lassa entry inh
COc1ccc(N2C(=O)NC3CC2(C)Oc2ccc(Br)cc23)cc1OC (configuration not stated)	1.6%	?	-18%	?	-2%	-2%	?	-24%
O=C(c1cccc(Cl)c1)N1CCCc2ccccc21	.	5%	-29%	0%	9%	-6%	.	1%
Cc1ccccc1NC(=O)c1cccc(NC(=O)c2c(C(=O)O)cccc2[N+](=O)[O-])c1	.	2%[46.1 µM]	.	-10%	-10%	.	.	-8%
CCC(C)N(CC(=O)Nc1cccc(C)c1C)C(=O)CCl (configuration not stated)	.	7%[46.1 µM]	.	16µM*	6%	-1%	.	3.2µM*
CCn1c(CNC(=O)c2ccco2)nnc1SCC(=O)Nc1cc(C(F)(F)F)ccc1Cl	-3.0%	-21%	-3%	-17%	10%	2%	3%	-10%
